Compound activity (PubChem BioAssay)
miR-21 FLuc = raises the signal of a miR-21 reporter; HeLa miR-21 FLuc reporter, luciferase, 48 h; Potency, µM (highest dose often 38.3 µM), for the others: top-dose reporter change, positive = more light; 340,000 tested, under 10 active; AID 2288; active = well fitted rising curve with a large enough effect; inconclusive = small, poorly fitted or top-dose-only effect; inactive = no such curve, though single readings can be large or run the other way;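 note: % of control where 0% means no effect; miR-21 action dims this reporter so a rising signal means less miR-21 action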
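HeLa miR-21-FLuc reporter line, endogenous miR-21; 2000 cells/well in DMEM/10% FBS; compound titration up to ~40uM final, 48 h, 37 degree Celsius; luciferase detection reagent, 15 min lysis, CCD luminescence.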
Rango dissoc inh = prevents RanGTP from dissociating the Rango-importin beta complex; O95149+P62826; Biochemical FRET Rango-importin beta, RanGTP-induced dissociation; Potency, µM (top dose mostly 46.1 µM), inactives show at the top dose activity change, negative = inhibition; hit rate 0.071% among 340,000; AID 540253; active means falling FRET ratio curve, often poorly fitted, with flat reads before Ran was added; inconclusive means other falling curves, or compound fluorescence or quenching; inactive means flat or rising ratio curve;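 note: potency is the fitted concentration of half-maximal effect; % of control where 0% means no effect; nearly all actives have a fitted effect of over 45% in size; -100% = wells without RanGTP and RCC1; the record marks most hits as doubtful in a second field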
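Rango (0.1 uM)–importin beta (0.25 uM) complex; RanGTP-RCC1 trigger; 45 min RT; CFP/YFP FRET read.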
GLA inh pH 4.5 = blocks human alpha-galactosidase A at pH 4.5 | 230,000 tested, under 10 active | purified enzyme, 4-MU-alpha-Gal fluorescence, pH 4.5 | P06280 | AID 1467 | activity change, negative = inhibition, % at 105 µM; inconclusive = small, poorly fitted or top-dose-only inhibition, or a rising curve; inactive = flat fitted curve, though single readings scatter; no compound was filed as active;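 note: 0% = full activity with enzyme and -100% = basal without enzyme; dose as in the result columns while the protocol names 77 µM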
Rango complex inh = inhibitors of Rango-importin beta complex formation. Q14974. Rango CFP/YFP FRET sensor + importin beta, 45 min. Potency, µM (highest dose often 92.2 µM), without a hit: top-dose inhibition of complex formation. hit rate 0.031% among 340,000. AID 540263; active = rising FRET ratio curve, often small or poorly fitted; inconclusive = mostly compound fluorescence or quenching in the first reads; inactive = flat curves in all reads;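 note: potency is the fitted concentration of half-maximal effect; 0% = DMSO wells and 100% = buffer wells lacking importin beta; nearly all actives have a fitted effect of over 15% in size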
Target sequence (Q14974 whole entry, looked up): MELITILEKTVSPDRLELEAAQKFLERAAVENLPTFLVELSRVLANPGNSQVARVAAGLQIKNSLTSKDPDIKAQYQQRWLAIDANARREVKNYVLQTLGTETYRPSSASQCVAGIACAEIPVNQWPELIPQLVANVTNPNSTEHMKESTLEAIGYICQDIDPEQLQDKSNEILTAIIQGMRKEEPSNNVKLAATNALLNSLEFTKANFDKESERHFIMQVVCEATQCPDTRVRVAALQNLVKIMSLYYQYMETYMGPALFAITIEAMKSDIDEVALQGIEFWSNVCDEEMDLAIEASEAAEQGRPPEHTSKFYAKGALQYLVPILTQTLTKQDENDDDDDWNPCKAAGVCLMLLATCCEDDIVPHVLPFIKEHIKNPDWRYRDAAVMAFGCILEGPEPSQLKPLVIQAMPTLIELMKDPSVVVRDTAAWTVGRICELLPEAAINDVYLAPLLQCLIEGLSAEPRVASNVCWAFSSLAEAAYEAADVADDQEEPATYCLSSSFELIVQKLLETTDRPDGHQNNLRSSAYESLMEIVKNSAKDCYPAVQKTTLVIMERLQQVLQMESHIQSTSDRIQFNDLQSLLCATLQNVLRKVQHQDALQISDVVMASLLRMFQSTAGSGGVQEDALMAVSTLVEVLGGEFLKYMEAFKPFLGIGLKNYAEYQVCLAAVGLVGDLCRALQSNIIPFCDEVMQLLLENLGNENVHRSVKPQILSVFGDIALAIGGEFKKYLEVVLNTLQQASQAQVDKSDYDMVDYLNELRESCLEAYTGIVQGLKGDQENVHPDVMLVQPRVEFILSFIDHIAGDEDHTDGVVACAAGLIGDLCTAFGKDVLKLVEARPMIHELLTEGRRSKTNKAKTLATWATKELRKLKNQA
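Inhibition scored from the CFP 486 nm/YFP 530 nm FRET ratio 45 min after adding 0.125 microM importin beta to 50 nM Rango biosensor preincubated 5 min with compound (room temperature, PBS with DTT, Tween-20, BSA). No-importin wells as positive control.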
* = called active by the depositor; ? = inconclusive; . = not tested or not shown. Some of the compounds tested, so the mix of outcomes need not match the whole.

SMILES	miR-21 FLuc	Rango dissoc inh	GLA inh pH 4.5	Rango complex inh
CC(=O)Nc1ccc(NC(=O)Cc2ccc(S(=O)(=O)N3CCCCC3)cc2)cc1	.	?	.	-0.6%
CCC(=O)Nc1nc2ccc3nc(C)sc3c2s1	-40.3%	1.4%	8.9	-2.5%
CC(C)C1S/C(=N/N=C/c2ccco2)NC1=O (stereo not given)	-11.4%	7.9%	-0.9	2.3%
CCC1Sc2ccc(S(=O)(=O)CCC(=O)Nc3c(Cl)cc(OC)cc3OC)cc2NC1=O (stereo not given)	11.7%	-13.2%	.	10.2%
Nc1cc(=O)[nH]c(SCC(=O)Nc2cccc(S(=O)(=O)N3CCCCCC3)c2)n1	.	0.9%	.	6.0%
O=C(c1ccc(=O)oc1)N1CCC(C(O)(c2ccccc2)c2ccccc2)CC1	-3.8%	2.6%	1.0	-1.8%
c1ccc(C(c2nnnn2Cc2cccs2)N2CCN(C3CCCC3)CC2)cc1 (stereo not given)	-1.2%	-0.1%	2.4	-1.3%
O=C(Cc1ccccc1)N/N=C/c1ccc(OC(=O)/C=C\c2ccco2)cc1	-18.7%	-1.6%	2.5	-1.6%
CN(C)c1ccc(NC(=O)COC(=O)c2ccc3c(c2)OCO3)cc1	.	16.7%	.	-1.1%
O=C(CN1CCCCC1)N1c2ccccc2Oc2ccccc21	-1.6%	1.7%	4.2	-0.6%
CCOC(=O)C1CCCN(C(=O)c2ccccc2NC(=O)C2=C(C)OCCS2)C1 (stereo not given)	0.2%	0.3%	.	-0.8%
O=C(O)CCn1ncc2ccccc2c1=O	0.9%	1.7%	2.4	0.2%
O=C(COC(=O)c1cccnc1Nc1ccccc1F)NCCN1C(=O)CSC1=O	-19.4%	-12.8%	-5.4	?
CCS(=O)(=O)Nc1ccc(C(=O)c2ccccc2)cc1	7.7%	-10.2%	-8.9	1.1%
CCN1C(=O)/C(=C2/Sc3ccc(OC)cc3N2C)SC1=Nc1cccc(O)c1	-9.8%	?	1.0	?
CCN(CCCNC(=O)CNC(=O)Cn1cnc2ccccc2c1=O)c1ccccc1	-4.1%	9.4%	-7.4	0.0%
COc1ccc(OCC(=O)Nc2nc3ccc(NC(C)=O)cc3s2)cc1	-7.2%	0.1%	-18.2	-2.7%
O=C1CC/C=C\C[C@@H](CC(=O)N(CCO)Cc2ccccc2)C(=O)NC[C@@H](c2ccccc2)O1	.	-7.3%	.	-0.4%
COc1ccc2sc(N(CCN(C)C)C(=O)/C=C/c3cccs3)nc2c1	26.4%	-6.7%	-1.5	-0.2%
CCc1c(C)sc(NC(=O)C2CCCCC2C(=O)O)c1C(N)=O (stereo not given)	-8.2%	-17.0%	-0.4	4.1%
C=C(C(=O)c1ccccc1)C(NC(C)(C)C)c1ccccc1 (stereo not given)	.	-1.1%	.	5.3%
c1ccc2c(c1)OCC(c1nn3cnnc3s1)O2 (stereo not given)	-5.8%	4.0%	-3.9	-5.2%
O=S(=O)(NCCNS(=O)(=O)c1ccc(F)cc1)c1ccc(F)cc1	-3.2%	8.7%	12.2	-4.1%
COC(=O)CC(NC(=O)C1CC1)c1ccc2c(c1)OCO2 (stereo not given)	1.3%	7.2%	4.4	1.6%
COc1ccc(NC(=O)/C(C#N)=C/c2ccc(OCCN3CCOCC3)c(OC)c2)c(OC)c1	-5.8%	8.1%	.	0.6%

(listing goes on)
SMILES	miR-21 FLuc	Rango dissoc inh	GLA inh pH 4.5	Rango complex inh
O=C(Nc1ccc(S(=O)(=O)N2CCOCC2)cc1)c1ccc(Cl)s1	5.3%	4.1%	0.7	2.8%
O=C1NC(=O)C2(CCCCCCCCCCC2)N1	-6.2%	8.4%	.	-1.2%
C=CCNC(=O)C1CC(=O)N(c2ccc(OCC(=O)Nc3cccc(OC)c3)cc2)C1 (stereo not given)	-29.9%	-16.3%	1.8	-0.6%
COc1ccc(C)cc1NC(=O)C(Sc1nnc(-c2ccncc2)n1-c1ccc(Cl)cc1)c1ccccc1 (stereo not given)	?	0.1%	-11.3	2.8%
CCOC(=O)c1sc(=S)n(-c2cc(OC)ccc2OC)c1N	-15.7%	-0.5%	-14.7	5.6%
O=C(CCCc1ccccc1)Nc1ccnn1C1CCN(Cc2ccc(CO)o2)CC1	-1.3%	24.3%	.	1.7%
O=C(Cc1cccs1)NCCCc1ccccc1	24.6%	7.9%	2.5	-1.3%
CCOC(=O)c1ccc(N2C(=O)CC(N3CCC(C(N)=O)(N4CCCCC4)CC3)C2=O)cc1 (stereo not given)	-4.9%	2.5%	6.4	2.2%
CCc1ccc(NCCC(=O)c2ccc(Cl)cc2)cc1	-3.2%	4.8%	6.0	-0.7%
CC(c1ccccc1)N(C)C(=O)CN1CCN(S(=O)(=O)c2ccc3c(c2)OCCCO3)CC1 (stereo not given)	.	2.7%	.	-0.8%
COc1ccccc1Nc1nc(-c2cccs2)cs1	-53.0%	0.4%	-2.4	1.2%
Cc1ccc(C(=O)C(OC(=O)c2cnccn2)c2ccccc2)cc1 (stereo not given)	-2.7%	-11.3%	4.7	-1.1%
COCCn1c(SCC(=O)c2cccc(OC)c2)nnc1-c1ccco1	-1.3%	-9.4%	-2.2	-0.4%
C=CCn1c(=O)[nH]c2cc(C(=O)N3CC=C(c4ccccc4)CC3)ccc2c1=O	9.6%	10.4%	18.8	-3.9%
COc1ccc(-c2cc(=O)oc3cc(OCC(=O)NCCCn4ccnc4)ccc23)cc1	0.3%	21.3%	.	4.6%
CN(C)CCOc1cccc(Br)c1	-1.6%	-6.4%	5.8	-7.1%
COc1ccc(Cl)cc1NS(=O)(=O)c1cccc2cccnc12	-3.9%	7.1%	.	-1.1%
Cc1cccc(NC(=O)CCN2CCCC(C)C2)c1 (stereo not given)	-1.0%	-6.1%	.	3.8%
Cc1cc(C=O)c2c(c1)C=CC1(Oc3ccccc3C(=O)N1C)O2 (stereo not given)	-5.0%	.	-10.5	.
Cc1ccc(C2(CCNC(C)c3cccs3)CCOC(C(C)C)C2)cc1 (stereo not given)	2.0%	-16.1%	-4.8	-5.3%
Cc1cc(C)cc(Nc2ncc3c(n2)CC(c2ccco2)CC3=O)c1 (stereo not given)	-8.9%	17.9%	2.6	-5.9%
COc1cccc(CC2(CO)CCCN(CC3=Cc4cc(OC)ccc4OC3)C2)c1 (stereo not given)	-0.3%	-2.3%	-6.8	-4.6%
Cc1nnc(SCC(=O)Nc2ccccc2NC(=O)CSc2nnc(C)s2)s1	-7.0%	-2.9%	-0.8	-0.2%
CC(=O)NCC(=O)NC1CC(C)(C)Cc2c1cnn2-c1ccccc1 (stereo not given)	0.5%	-2.5%	.	-0.1%
Cc1cc[n+](CC(=O)Nc2cccc(C)c2)cc1	2.8%	-12.7%	.	-3.4%

(continued)
SMILES	miR-21 FLuc	Rango dissoc inh	GLA inh pH 4.5	Rango complex inh
Cc1ccc(C)c(OCCC(=O)Nc2ccc3c(c2)OCO3)c1	.	2.7%	.	-3.2%
COc1ccc(S(=O)(=O)NNC(=O)c2sccc2-n2cccc2)cc1	-9.6%	20.2%	5.2	0.7%
CCOC(=O)C(C)Sc1nnc2c3ccccc3n(C)c2n1 (stereo not given)	-7.8%	8.4%	.	1.5%
O=C(Nc1c(C(=O)Nc2cccc3ccccc23)cnn1-c1ccccc1)c1ccco1	0.9%	0.7%	3.5	0.6%
COc1cc(CNCc2cccnc2)ccc1OCc1ccccc1	-20.2%	1.0%	0.4	0.9%
O=C1CCCC/C1=C\Nc1ccccc1C(=O)O	-6.0%	-4.1%	8.3	-3.5%
OCC1(CCCc2ccccc2)CCN(Cc2cc(F)ccc2F)CC1	-1.4%	-0.5%	-6.7	1.2%
O=S(=O)(c1ccc2c(c1)OCCO2)N1CCN(c2nc3ccccc3s2)CC1	0.2%	17.9%	-1.3	-0.4%
COc1ccc(N2C(=O)CC(NC3CCCCNC3=O)C2=O)cc1 (stereo not given)	1.6%	2.4%	-2.0	-1.4%
Cc1ccccc1CNCCCSc1ncccn1	-7.1%	7.8%	.	-2.0%
Cn1ccnc1SCC(=O)Nc1cccc([N+](=O)[O-])c1	-14.6%	3.8%	-2.1	-2.4%
CCn1c(=N)n(CC(O)c2ccccc2)c2ccccc21 (stereo not given)	-7.4%	0.9%	6.7	-1.6%
COc1ccc2sc(NCc3ccccc3)nc2c1	-56.6%	10.9%	.	-2.2%
O=c1oc2ccc(Cl)cc2nc1/C=C(\O)c1cccs1	-55.2%	-1.2%	7.5	?
Cc1cccc(C)c1NC(=O)CN(C)CC(=O)Nc1ccccc1Br	-2.8%	4.7%	8.4	2.5%
C[C@H]1CCC[C@]2(O[C@H](CCO)C[C@H](O)[C@H]2O)O1	.	0.9%	.	-1.1%
COc1ccc(OCC(=O)Nc2c3c(nn2C(C)(C)C)CSC3)cc1	23.9%	15.0%	-1.8	-7.0%
O=c1c2ccccc2ncn1-c1ccc(Cl)cc1Cl	0.7%	9.1%	2.4	0.4%
CN(CCc1ccccn1)C(=O)CCC1CCCN(C(=O)c2c3c(nn2C)CCCC3)C1 (stereo not given)	-2.6%	-15.0%	3.7	-4.5%
COc1ccc(CN2CCN(CCSc3ccc(C)cc3)CC2)c(OC)c1OC	21.1%	0.1%	.	5.7%
CCN1CCN(S(=O)(=O)c2ccc(Cl)c(C(=O)N(C)Cc3ccccc3)c2)CC1	.	-16.4%	.	-0.8%
CCN(CC)S(=O)(=O)c1cccc(C(=O)NNC(=O)c2ccc3[nH]c(=O)c(=O)[nH]c3c2)c1	1.7%	0.0%	.	1.4%
Cc1ccc(S(=O)(=O)/N=C/c2cc(Br)ccc2O)cc1	-2.5%	-8.4%	6.6	?
CN(C)CC1CCCCC1C1(O)c2ccccc2CSc2sccc21 (stereo not given)	-10.5%	22.9%	-5.5	1.6%
COC(=O)[C@@]12CCCN1[C@H](c1ccc(SC3CCCCC3)cc1)[C@H]1C(=O)N(C)C(=O)[C@H]12	.	0.6%	.	0.9%

Some of the entries above, set out differently.
SMILES,miR-21 FLuc,Rango dissoc inh,GLA inh pH 4.5,Rango complex inh
COC(=O)[C@@]12CCCN1[C@H](c1ccc(SC3CCCCC3)cc1)[C@H]1C(=O)N(C)C(=O)[C@H]12,.,0.6%,.,0.9%
CCOC(=O)C(C)Sc1nnc2c3ccccc3n(C)c2n1 (stereo not given),-7.8%,8.4%,.,1.5%
O=c1c2ccccc2ncn1-c1ccc(Cl)cc1Cl,0.7%,9.1%,2.4,0.4%

The results go on:
SMILES	miR-21 FLuc	Rango dissoc inh	GLA inh pH 4.5	Rango complex inh
COc1cc(/C=N/NC(N)=S)ccc1OCC(=O)N1CCOCC1	-1.3%	22.5%	10.7	5.5%
Cc1onc(-c2ccccc2)c1C(=O)NC1CC1	.	8.8%	.	7.6%
CCn1c(SCC(=O)Nc2cc(NC(C)=O)ccc2OC)nnc1-c1ccncc1	-5.9%	.	-4.5	.
CC12CCC(c3c(C(=O)O)nn(-c4ccccc4)c31)C2(C)C (stereo not given)	-3.4%	-8.7%	-5.4	2.9%
Cc1nc2nc(SCC(=O)NCCCN3CCCCCC3)nn2c(C)c1Cc1ccccc1Cl	-4.7%	-4.9%	.	-2.2%
O=C(C[C@H]1C/C=C\C[C@@H](Cc2ccc(F)cc2)C(=O)OC[C@H]2CCCN2C1=O)N[C@H](CO)Cc1ccccc1	.	2.3%	.	-1.4%
Cc1ccnc(N2CCCC(C(=O)Nc3ccc(C)c(C)c3)C2)n1 (stereo not given)	-5.2%	0.4%	.	-5.6%
CC(=O)c1ccc(NC(=O)CSc2ccc(-c3ccco3)nn2)cc1	-6.1%	1.2%	.	-0.9%
CCOC(=O)C1=C(C)NC2=C(C(=O)C(C(=O)OCC)C(c3ccc(OC)cc3)C2)C1c1ccccn1 (stereo not given)	-8.3%	?	0.3	?
CC1=CC(=C(C#N)C#N)c2ccccc2N1C	10.0%	?	-4.3	?
CC(=O)c1c(C)[nH]c(C(=O)COC(=O)Cc2ccccc2F)c1C	.	0.2%	.	-2.2%
CC1CCCCN1C/C=C/c1ccccc1[N+](=O)[O-] (stereo not given)	-2.9%	1.0%	-0.5	1.3%
COc1cccc(Nc2nnc(SCC(=O)N3CCOCC3)s2)c1	-15.5%	0.4%	4.7	0.0%
CCN(CC(=O)Nc1ccc2c(c1)OCCO2)CC(=O)Nc1ccc2c(c1)OCO2	-3.2%	8.5%	-2.8	-0.5%
Cc1cnc(NS(=O)(=O)c2ccccc2)c(Br)c1	-6.4%	-4.1%	-9.8	-1.7%
